Source: PubChem (ICCB-Longwood Screening Facility, Harvard Medical School)
MenB inh – blocks the Mycobacterium tuberculosis MenB enzyme; 0.43% of 100,000 active; inhibition, %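 (about 12 µg/mL by stock and volumes)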; P9WNP5; MenB enzyme assay, absorbance read-out; some hits fall short of the stated cut; AID 540299;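 active = mean of two replicates above 30%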;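 also: 0% = no compound and 100% = wells with inactive enzyme; the first replicate is given; strong numbers were not always called active; inactives centre near -10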
Target sequence (P9WNP5 whole entry, looked up): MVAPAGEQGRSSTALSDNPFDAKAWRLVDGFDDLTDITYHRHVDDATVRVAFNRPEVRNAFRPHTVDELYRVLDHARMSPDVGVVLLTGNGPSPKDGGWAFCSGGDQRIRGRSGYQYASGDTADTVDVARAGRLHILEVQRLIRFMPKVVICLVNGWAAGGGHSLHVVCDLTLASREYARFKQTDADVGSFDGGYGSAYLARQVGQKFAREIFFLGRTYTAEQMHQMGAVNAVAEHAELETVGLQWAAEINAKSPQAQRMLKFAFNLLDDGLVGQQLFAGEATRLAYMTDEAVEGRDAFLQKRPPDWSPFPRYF
Polio RdRp inh – inhibitors of poliovirus RNA polymerase binding and polymerization; poliovirus polymerase elongation, fluorescence polarization; hits give low values; % elongation, % (compound at 16.7 µg/mL); 0.66% of 150,000 active; AID 588519; in the data active = % elongation below about 90%; also: some results filed as inactive read as strong as hits
Target sequence (P03300 1749-2209 limits assumed): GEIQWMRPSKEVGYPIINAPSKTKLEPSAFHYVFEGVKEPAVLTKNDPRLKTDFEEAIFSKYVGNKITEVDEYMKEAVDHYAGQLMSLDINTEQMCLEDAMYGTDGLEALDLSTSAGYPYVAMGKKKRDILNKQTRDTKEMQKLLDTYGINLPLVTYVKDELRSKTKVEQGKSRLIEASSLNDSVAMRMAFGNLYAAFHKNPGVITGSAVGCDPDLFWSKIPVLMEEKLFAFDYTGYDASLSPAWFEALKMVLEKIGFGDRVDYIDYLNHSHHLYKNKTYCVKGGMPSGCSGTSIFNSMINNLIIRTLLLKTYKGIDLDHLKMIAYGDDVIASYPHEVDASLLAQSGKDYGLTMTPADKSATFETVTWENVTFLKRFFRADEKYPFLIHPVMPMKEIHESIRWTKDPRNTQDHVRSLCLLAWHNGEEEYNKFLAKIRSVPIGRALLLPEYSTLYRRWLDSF
Mtb MbtI inh – MbtI salicylate synthase inhibition; P9WFX0; purified MbtI enzyme, fluorescence intensity read-out; inhibition, %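 (about 17 µg/mL by stock and volumes)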; 0.89% of 100,000 active;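 active = above 50% in both replicates, above 80% if mildly self-fluorescent; inactive = the rest, strongly fluorescent compounds included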;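 also: 0% = mean of negative and 100% = mean of positive controls; one replicate is shown; some compounds called inactive have numbers as strong as hits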
Polio RdRp inh intensity – further read-out of Polio RdRp inh, marked with its call; % elongation; measured here: total intensity read-out; formula for this scale not given here;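 total fluorescence in place of polarization; lower means less elongation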
Numbers without * were called inactive; · = no result given; & = joins results of further samples.

Start of the listing, in advance (5 entries):
molecule,MenB inh,Polio RdRp inh,Polio RdRp inh intensity,Mtb MbtI inh
O=C(NCc1ccc2c(c1)OCO2)NCc1ccc2c(c1)OCO2,-31,100,100,4
C=CCn1c(SCC(=O)/C(C#N)=C(\C)N)nnc1-c1ccoc1C,5,100,93,16
COc1ccc(/C=C/C(=O)OC2CCCCC2=O)cc1 (configuration not stated),·,101,97,-8
NS(=O)(=O)c1cccc(S(N)(=O)=O)c1,16,102,102,-23
Cc1cccc(N(C)S(=O)(=O)c2c(C)nc3sccn3c2=O)c1,26,100,102,-5

The listing (from the top)
molecule,MenB inh,Polio RdRp inh,Polio RdRp inh intensity,Mtb MbtI inh
O=C(NCc1ccc2c(c1)OCO2)NCc1ccc2c(c1)OCO2,-31,100,100,4
C=CCn1c(SCC(=O)/C(C#N)=C(\C)N)nnc1-c1ccoc1C,5,100,93,16
COc1ccc(/C=C/C(=O)OC2CCCCC2=O)cc1 (configuration not stated),·,101,97,-8
NS(=O)(=O)c1cccc(S(N)(=O)=O)c1,16,102,102,-23
Cc1cccc(N(C)S(=O)(=O)c2c(C)nc3sccn3c2=O)c1,26,100,102,-5
O=C(CN1CCN(C(=O)C2COc3ccccc3O2)CC1)Nc1ccccc1 (configuration not stated),-9,103,103,-7
COc1ccc(C(=O)N(Cc2ccc3c(c2)OCO3)C2CCCC2)c(OC)c1,-4,100,104,-2
CCOC(=O)/C=C/c1ccc(N)cc1,·,105,109,-48
CC(C)(C)c1cc(CC(=O)O)cc(C(C)(C)C)c1O,-11,99,103,3
C/C(=N\NC(=O)c1ccc(CN2CCOCC2)cc1)c1cccs1,-8,103,105,11
Cc1c(C)c2c(c(C)c1O)CC[C@](C)(CCC[C@@H](C)CCC[C@@H](C)CCCC(C)C)O2,4,100,104,-6
Clc1nccc2ccc(Br)cc12,25,104,102,1
COCCNC(=O)Cn1c(C(=O)OC)ccc1-c1ccco1,-17,103,102,16
CSc1ccc(CN(CCO)Cc2ccccc2)cc1,4,100,104,2
Cc1ccc(NC(=O)Nc2cccs2)cc1,-56,105,107,17
CC(=O)N(Cc1ccccc1)Cc1cn(-c2ccccc2)nc1-c1cc2ccccc2o1,-14,102,104,134
Cc1cccc(NC(=O)CSC2=C(C#N)C(c3ccco3)C3=C(CCCC3=O)N2)c1 (configuration not stated),-20,104,108,-9
CCOC(=O)C1C2C=CC3(CN(C(C)C)C(=O)C13)O2 (configuration not stated),-5,103,103,-12
Cc1cc(C)cc(NC(=O)CSc2ccc3nnc(-c4cccs4)n3n2)c1,-23,102,100,18
Cc1c(C)c(C)c(CNC(=S)NN)c(C)c1C,0,109,107,-6
Cc1ccccc1Cc1c(C)nc2c(C(=O)N3CCOCC3)cnn2c1C,-15,104,102,101
OCc1ccccc1NC(=S)Nc1cccnc1,-3,106,111,·
COc1ccc(C(=O)NCC2OCCc3ccccc32)cc1 (configuration not stated),-5,104,106,-11
O=C(Cc1cccs1)Nc1c2c(nn1-c1ccccc1)CSC2,4,101,101,3
CCc1ccc(NC(=O)/C(C#N)=C/c2cc(C#N)n(C)c2C)cc1,-13,109,146,-6
COc1ccc(C2=CC(c3ccccc3)c3ccccc3O2)cc1OC (configuration not stated),-15,103,106,-2
Cc1cc(N=Cc2c(O)n(-c3cccc(Cl)c3)c(=O)c3ccccc23)no1,-33,111,112,-12
Cc1ccc(-c2nc3ccccc3[nH]2)cc1NC(=O)C(C)C,14,100,104,87
O=C(O)c1ccn(Cn2cnc3ccccc32)n1,-21,106,106,20
N#Cc1c(N)nc(SCC(=O)c2cc3ccccc3oc2=O)c(C#N)c1-c1ccc(O)cc1,-11,99,106,-8
COCC(C)NC(=O)c1ccc(OC)cc1OC (configuration not stated),-5,101,102,9
CC1CCN(C(=O)CSc2nnnn2C2CC2)c2ccccc2S1 (configuration not stated),2,102,98,14
N#Cc1ccc(C=Nc2cccc3c(N=Cc4ccc(C#N)cc4)cccc23)cc1,0,100,109,·
CCN(C(=O)CSc1nc2sc3c(c2c(=O)n1C)CCCC3)C1CCS(=O)(=O)C1 (configuration not stated),-18,103,107,16
CC1=C(C)C(=O)C(CCCCC#CCCCC#CCO)=C(C)C1=O,-14,106&104,103&102,25
C=CCn1c(SCC2=C(C(=O)OCC)C(C)NC(=O)N2)nnc1C1CCCCC1 (configuration not stated),-6,·,·,-5
Cc1ccc(-c2nnc(CCC(=O)NN)o2)cc1,-3,105,108,-5
S=c1nc[nH]c2c1oc1ccccc12,-52,101,100,82
CC1CCc2c(sc(N)c2C(=O)Nc2ccc(Cl)cc2)C1 (configuration not stated),-5,90,94,·
C/C(N)=C(/C#N)C(=O)CSc1nnc2sc3ccccc3n12,-7,100,107,-1
COc1cccc(C(=O)N2CCCCC2C)c1 (configuration not stated),6,102,102,·
FC(F)(F)c1ccc(-c2n[nH]c(=S)o2)nc1,-18,98,101,3
O=P(c1ccc2c(c1)OCCO2)(N1CCOCC1)N1CCOCC1,4,99,110,-7
Cc1ccccc1NC(=O)c1cc(C)n(Cc2cccs2)c1C,-24,104,104,3
Cc1cc(C)n(CCC(=O)NC2CCCCCC2)n1,6,100,103,-27
Cc1ccc(-c2cn3cccc(C)c3n2)cc1,·,102,105,92
CS(=O)(=O)N1CCN(Cc2ccccc2)CC1,12,99,105,-11
COc1ccc(NC(=O)Nc2ccc3c(c2)C(=O)OC3)cc1,-21,95,92,20
N#C/C(=C(/O)CSc1nncn1-c1ccccc1)c1nc2ccccc2[nH]1,7,107,121,39
O=C(NCCN1CCN(c2ncnc3sc4c(c23)CCCC4)CC1)c1ccco1,1,100,104,2

The listing continues.
molecule,MenB inh,Polio RdRp inh,Polio RdRp inh intensity,Mtb MbtI inh
CC(C)OC(=O)CSc1ncnc2c1cnn2-c1ccccc1,-26,104,102,7
N#Cc1ccc(NC(=O)C2CCCO2)cc1 (configuration not stated),-15,101,101,-1
Cc1[nH]c2ccc(C(=O)OCC(=O)N3CCN(c4ccccc4)CC3)cc2c1C,-16,106,108,11
CC1(C)CC2CC(C)(CN2C(=O)COC(=O)c2ccc(Cl)c(N)c2)C1 (configuration not stated),·,104,98,-1
Cc1cc(C(=O)NCC2CCN(C3CCCC3)C2)nc2c1c(C)nn2-c1ccccc1Cl (configuration not stated),-5,104,106,-5
Cn1c2ccccc2c2nnc(SCCN3CCCCC3)nc21,-11,102,103,-8
COc1cc2c(cc1OC)C(C)N(S(=O)(=O)c1cn(C)cn1)CC2 (configuration not stated),-11,101,98,-1
Cn1c(SCCS(=O)(=O)c2ccc(Cl)cc2Cl)nnc1-c1ccco1,-10,102,103,17
Cc1nc(C)c(NC(=O)OC(C)C)cc1NC(=O)OC(C)C,-9,106,111,-11
N#Cc1c(N)n[nH]c1-c1cc2c([nH]1)CCCC2,32,100,100,90
CC(C)(C)c1ccc(C(=O)Nc2ccon2)cc1,-20,102,104,-15
c1ccc2oc(CSc3ccc4c(c3)OCCO4)nc2c1,-22,102,98,-3
O=C(Nc1cccc2cccnc12)c1ccc(Br)o1,-18,102,103,73
Cc1nn(-c2ccccc2)c(Cl)c1C(=O)OCC(=O)N1CCCC1,3,103,109,-22
CCN1C=CC2=C(C#N)C(N)C(C#N)(C#N)C(c3ccccc3C(F)(F)F)C2C1 (configuration not stated),-75,92,114,2
CCN(C(=O)c1ccc(C(=O)N(CC)c2ccccc2)cc1)c1ccccc1,-18,97,98,·
CCN=c1sc(C(=O)Nc2ccccc2)c(C)n1CC,9,98,102,0
O=C(Cn1cnc(S(=O)(=O)N2CCCCC2)c1)N1CCc2ccccc21,-20,100,101,-10
CC(C)NC(=O)CSc1nc(-c2ccccc2)cn1N,-2,102,105,11
CC(C)(C)NSc1nc2ccccc2s1,-39,100,99,64
COc1ccccc1/C=N/n1cnnc1SCC(C)(C)NS(=O)(=O)c1ccc(C)cc1,-11,101,99,16
CC1(C)CC(=O)C(C=NCCN2CCN(CC(=O)Nc3ccccc3)CC2)=C(O)C1,-43,102,102,14
Cc1cc(NS(=O)(=O)c2ccccc2)cc(S(=O)(=O)c2ccccc2)c1O,-13,106,115,·
O=C(CC1SC(=Nc2ccccc2)N(C2CC2)C1=O)Nc1cccc(Cl)c1 (configuration not stated),-17,109,106,-20
CCn1c(C)nc2c(=O)oc3ccccc3c21,-2,99,95,3
Cc1noc(C)c1COC(=O)CC1Sc2ccccc2NC1=O (configuration not stated),2,103,106,17
Cc1ccc(OCc2nc(SCC(=O)NCC(F)(F)F)n[nH]2)cc1,7,·,·,-5
CCn1c(SCCN2CCOCC2)nnc1C1CCCCC1,2,102,101,5
CCN1C=C(C(=O)OC)C(c2cc3c(cc2Br)OCO3)C(C(=O)OC)=C1,7,103,96,3
O=C1c2ccccc2C(=O)N1Cc1ncc(-c2ccccc2)o1,-3,·,·,0
CCCC(=O)c1cc(F)c(N2CCOCC2)cc1C,-73,100,101,12
Cc1ccc(NCn2nnc3ccccc32)c(Br)c1,8,105,102,-5
Cc1ccc2oc(=O)c3cnn(CC(=O)NC(C)C)c3c2c1,-8,102,97,-5
O=C1CCc2cc(S(=O)(=O)NC(Cc3ccccc3)C(=O)N3CCn4c3nc3ccccc34)ccc2N1 (configuration not stated),-6,101,103,-5
Cc1csc(=O)n1CC(=O)OCC(=O)c1ccc(C(C)(C)C)cc1,-3,106,96,8
C=CCc1c(C)[nH]c2ccccc2c1=O,-56,103,102,16
CSc1nc(NC(N)=S)nc(NC(C)C)n1,-30,101,101,87*
COC(=O)c1cc(OC)c(OC)cc1NC(=S)N1CCN(C(=O)c2ccco2)CC1,-15,101,103,-3
COc1ccc(NC(=O)c2cccc(S(=O)(=O)N3CCCC3)c2)c(OC)c1,-10,97,104,14
Cc1cc(C)c(-n2cccc2CN)c(C)c1,-15,107,113,·
Cc1cc(C(=O)OCC(=O)N2CC3(C)CC2CC(C)(C)C3)c(C)o1 (configuration not stated),5,102,101,7
COc1ccc(OC)c(CCNC(=O)Cn2cccc2C(=O)c2ccccc2)c1,9,101,105,-1
CCNc1ccc2c(cc1=O)[C@@H](NC)CCc1cc(OC)c(OC)c(OC)c1-2,-101,100,102,14
O=C(NC(=S)Nc1cccc(C(F)(F)F)c1)c1ccccc1,-13,102,96,·
O=C(NC1CCN(C(=O)C2CCCCC2)CC1)c1ccccc1,-2,99,102,2
CC1=C(C(N)=O)C(c2ccco2)C(C(N)=O)=C(C)N1,-6,104,111,·
CC1(C)c2ccccc2N(CCC(N)=O)C12C=Cc1c(ccc3ccccc13)O2 (configuration not stated),-24,107,113,-12
CC(=O)Nc1cc(C(=O)NCCc2ccc(C)cc2)ccc1Sc1ccc(C)cc1,-18,99,99,11
Cc1cccc2cc(CN(C(=O)c3ccco3)C3CCCC3)c(=O)[nH]c12,28,102,102,20
CCCN(CCC)C(=O)CSc1nc2ccsc2c(=O)n1-c1ccc(Br)cc1,-14,103,103,-9

New compounds follow:
molecule,MenB inh,Polio RdRp inh,Polio RdRp inh intensity,Mtb MbtI inh
CSC1=N/C(=C\c2ccccc2Cl)C(=O)N1,-39,99,102,-52
CS(=O)(=O)N1CCC(c2nc(-c3ccc(S(=O)(=O)NCC4CCCO4)cc3)no2)CC1 (configuration not stated),-37,107,102,-9
Cc1ccc(CCC2C3=C(CCCC3=O)OC3=C2C(=O)CCC3)cc1,-8,107,112,·
CC(=O)Nc1cc2nn(-c3ccccc3)nc2cc1C,2,106,113,·
CC(Nc1ccc(Br)cc1)C(=O)Nc1cccc(Cl)c1Cl (configuration not stated),·,100,102,-3
CC1=NOC2(O)CC3C(C12)C3(C)C (configuration not stated),1,99,101,-7
CCOC(=O)C1C(=O)N(C)C2(C)CC1c1ccccc1O2 (configuration not stated),-8,104,105,1
O=C(O)c1csc2c1CCCC2,-33,102,100,6
CC(CN(C)Cc1ccccc1)OC(=O)c1cc2ccccc2o1 (configuration not stated),-20,101,105,-8
COc1nc(OCCNS(=O)(=O)c2ccc(C)cc2)nc(N(C)C)n1,16,101,103,-3
CCOC(=O)Nc1ccc2c(c1)N(C(=O)N(C)C)c1ccccc1CC2,-25,104,99,2
CC(C)(C)C(=O)/C(C#N)=C/c1ccc(-c2ccc(F)cc2)o1,-57,100,111,-12
CSc1nsc(SC)c1NC(=O)OCC1CCCO1 (configuration not stated),2,88*,53*,·
CC(C)/C=N/N1C(N)=C(C#N)C(C#N)(C#N)C1C(C)C (configuration not stated),-7,106,97,·
CC1(C)C/C(=N\O)C(C(O)c2ccccc2)C(C)(C)N1 (configuration not stated),-23,104,102,-20
CC(Nc1ncnc2sc3c(c12)CCC3)C(=O)O (configuration not stated),-13,104,101,0

This is a random part of the collection; overall some 1.7% were active at least once.
